VP16 counter = counter-screen for ROR gamma inhibitors: Gal4-VP16 reporter | 3.5% of 310,000 active | AID 2546 | Drosophila S2 Gal4-VP16 UAS-luciferase, luminescence, 20 h | Potency, µM (doses to about 53.6 µM), for inactives: at the highest dose activity, negative = inhibition, hits mostly inhibitors;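 further: Gal4-VP16 expression switched on by copper sulfate through the metallothionein promoter; potency means the concentration at half of the fitted maximal effect; on the % scale 0 is the no-effect control and ±100 the full control effect; nearly all actives have a fitted effect of over 50% in size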
NPC1 promoter act = activators of NPC1 promoter; Potency, µM (titrated, usually from 9.22 µM), for inactives: at the highest dose activation, hits mostly activators; Huh7 NPC1 promoter luciferase reporter, 24 h; 2.4% of 320,000 active;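 further: potency means the concentration at half of the fitted maximal effect; % of control where 0% means no effect; nearly all actives have a fitted effect of over 60% in size; reporter is driven by a mutant NPC1 promoter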
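Stable NPC1-promoter luciferase Huh7 line; cpd (DMSO) 24 h, 37 °C, 5% CO2; Amplite luciferase reagent 10 min RT; luminescence readout. qHTS format.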
Rab9 prom act = activates the Rab9 promoter. 2.8% of 320,000 active. Potency, µM (series often up to 9.22 µM), inactives show top-dose activation, negative = inhibition, usual class: activators. Huh7 Rab9 promoter-luciferase reporter, luminescence, 24 h. AID 485297; further: potency means the concentration at half of the fitted maximal effect; % of control where 0% means no effect; nearly all actives have a fitted effect of over 60% in size
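Stable Rab9-luc Huh7, 1500 cells/well, 2 h settle; cmpd in DMSO, 24 h, 37 °C/5% CO2; luciferase reagent 10 min RT; luminescence.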
FLuc counter = firefly luciferase modulation, counter-screen for miR-21 project. P08659. purified FLuc, Km substrates, luminescence inhibition. Potency, µM (doses to about 57.5 µM), for inactives: at the highest dose activity change, negative = inhibition, usual class: inhibitors. 6.9% of 360,000 active. AID 588342;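 further: potency means the concentration at half of the fitted maximal effect; plate controls were vehicle for no effect and reference inhibitor for full effect; nearly all actives have a fitted effect of over 55% in size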
Target sequence (P08659 whole entry, looked up): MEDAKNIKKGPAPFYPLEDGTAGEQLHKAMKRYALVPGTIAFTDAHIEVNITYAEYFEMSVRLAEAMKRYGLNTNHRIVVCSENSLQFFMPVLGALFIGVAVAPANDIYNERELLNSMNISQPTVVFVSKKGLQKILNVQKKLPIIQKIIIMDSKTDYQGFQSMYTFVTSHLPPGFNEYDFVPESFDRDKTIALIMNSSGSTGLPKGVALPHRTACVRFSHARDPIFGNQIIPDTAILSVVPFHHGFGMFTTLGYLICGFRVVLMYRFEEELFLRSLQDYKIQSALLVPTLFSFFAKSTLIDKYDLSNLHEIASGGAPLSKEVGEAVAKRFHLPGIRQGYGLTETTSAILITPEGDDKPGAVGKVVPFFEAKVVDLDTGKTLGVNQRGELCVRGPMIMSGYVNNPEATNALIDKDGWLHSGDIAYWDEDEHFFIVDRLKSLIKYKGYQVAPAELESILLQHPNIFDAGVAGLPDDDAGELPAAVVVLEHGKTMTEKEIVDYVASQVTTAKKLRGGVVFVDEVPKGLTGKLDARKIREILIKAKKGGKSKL
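Purified P. pyralis luciferase (10nM final) with 10uM D-luciferin and 10uM ATP (Km levels) in 50mM Tris acetate pH 7.5, 10mM Mg acetate, 0.01% Tween-20, 0.05% BSA; qHTS 6-point titration, ~60 µM downward; luminescence read.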
KCNH2 3.1 inh = KCNH2 3.1 (human) potassium channel inhibition; U2OS KCNH2 3.1, thallium flux FluxOr; active compounds read low; activity change, % (tested at about 1.8 µM); 0.95% of 340,000 active; AID 720553;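 active means maximum activity change below -70%; inconclusive means maximum activity change from -70% to -50%; inactive means maximum activity change above -50%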;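 further: thallium influx rate constant from kinetic fluorescence after stimulation buffer; on the % scale 0 is the no-effect control and ±100 the full control effect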
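Virally transduced U2OS (3.1 isoform, 4 h infection in dark at RT) → overnight 37 C → FluxOr + Red40 in HBSS/HEPES, 45 min → stimulation buffer, 2 min kinetic read → rate constant vs DMSO controls.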
RORg inh = ROR gamma (mouse) transcription inhibition. 5.4% of 310,000 active. Potency, µM (titrated, usually from 53.6 µM), without a hit: top-dose activity change, negative = inhibition, most hits filed as inhibitors. P51450. AID 2551. Drosophila S2 Gal4-RORgamma UAS-luciferase reporter, 20 h; further: potency means the concentration at half of the fitted maximal effect; on the % scale 0 is the no-effect control and ±100 the full control effect; nearly all actives have a fitted effect of over 60% in size
Target sequence (P51450 whole entry, looked up, the tested form may be a part): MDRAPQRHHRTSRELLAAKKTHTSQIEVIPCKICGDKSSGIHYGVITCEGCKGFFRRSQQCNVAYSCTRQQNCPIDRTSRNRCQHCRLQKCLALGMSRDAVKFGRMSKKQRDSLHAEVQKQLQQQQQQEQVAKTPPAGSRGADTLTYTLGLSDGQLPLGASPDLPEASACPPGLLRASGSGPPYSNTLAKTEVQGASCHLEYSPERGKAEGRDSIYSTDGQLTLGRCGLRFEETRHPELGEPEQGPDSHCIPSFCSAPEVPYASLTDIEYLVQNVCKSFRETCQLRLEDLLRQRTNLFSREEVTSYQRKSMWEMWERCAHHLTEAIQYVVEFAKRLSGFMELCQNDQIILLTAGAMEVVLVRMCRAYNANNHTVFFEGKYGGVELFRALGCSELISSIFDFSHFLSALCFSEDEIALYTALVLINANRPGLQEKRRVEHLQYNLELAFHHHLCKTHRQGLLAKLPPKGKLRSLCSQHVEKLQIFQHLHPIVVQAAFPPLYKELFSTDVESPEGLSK
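Compounds are pin-transferred onto Drosophila Schneider cells expressing a copper-inducible Gal4–ROR gamma transactivation domain fusion. After 1 hr, copper sulfate is added to 700 uM final; luciferase is read 20 hr later.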
ELG1 DNA repair = inhibitors of ELG1-dependent DNA repair in HEK293T cells | 2.3% of 330,000 active | AID 504467 | Potency, µM (highest dose often 46.1 µM), for inactives: at the top dose activity change, negative = inhibition, actives largely listed as inhibitors | HEK293T ELG1-luciferase reporter, luminescence, 16 h; DNA damage induced by 5-fluorouridine; further: potency means the concentration at half of the fitted maximal effect; on the % scale 0 is the no-effect control and ±100 the full control effect; nearly all actives have a fitted effect of over 55% in size
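5-Fluorouridine DNA damage + compound/DMSO, 2,000 cells/well, 16 h, 37 °C/5% CO2. ONE-Glo, 30 min RT, luminescence. Readout = decrease in reporter signal.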
MBNL1 CUG block = MBNL1-poly(CUG) RNA binding inhibition; Q9NR56; TR-FRET MBNL1-His/biotin-(CUG)12 binding, 665/545 ratio; Potency, µM (series often up to 57.5 µM), without a hit: at the top dose activity change, negative = inhibition, hits mostly inhibitors; 0.036% of 280,000 active; AID 2675; active means well fitted inhibition curve with a large enough effect in the signal ratio, with a control signal flat, not every such curve was filed as active; inconclusive means small, poorly fitted or top-dose-only effect, or effect the other way, or a change in a side signal; inactive means no such curve, though single readings can be large or run the other way; the % refers to the signal ratio; further: potency means the concentration at half of the fitted maximal effect; on the % scale 0 is the no-effect control and ±100 the full control effect
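Compounds (final 92 nM to 58 uM) are added to His-tagged MBNL1 and biotin-(CUG)12, then terbium anti-His antibody and streptavidin-XL665 (5 nM final). After 60 min at room temperature, the 665/545 nm ratio is read.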
Menin-MLL TR inh = inhibitors of human menin-MLL interaction, mutant MLL peptide | Menin + Texas Red MLL mutant peptide, fluorescence polarization | Potency, µM (doses to about 61.6 µM), for the others: at the top dose FP activity change, negative = inhibition, hits mostly inhibitors | 0.23% of 270,000 active; active means well fitted inhibition curve with a large enough effect in the polarisation, with a control signal flat, not every such curve was filed as active; inconclusive means small, poorly fitted or top-dose-only effect, or effect the other way, or a change in a side signal; inactive means no such curve, though single readings can be large or run the other way; the % refers to the polarisation; further: potency means the concentration at half of the fitted maximal effect; % of control where 0% means no effect; many of its hits are not listed in these tables
Mito fusion act = blocks mitochondrial division or promotes mitochondrial fusion; S. cerevisiae fusion-defective mutant growth rescue, CellTiterGlo 48 h; Potency, µM (highest dose often 46.1 µM), for inactives: at the highest dose growth rescue (activation), actives largely listed as activators; 0.23% of 320,000 active;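 further: potency means the concentration at half of the fitted maximal effect; % of control where 0% means no effect; nearly all actives have a fitted effect of over 45% in size; temperature-sensitive fusion mutants such as fzo1-1 at 37 °C on non-fermentable ethanol glycerol medium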
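Read-out: ATP-based luminescence (CellTiterGlo, 10 min ambient) reporting growth of fusion-defective ts yeast after 48 hours at 37C on glycerol/ethanol YPEG medium in the presence of compound.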
Numbers without * were called inactive; ? = inconclusive; · = not tested or not shown; [ ] = dose if it differs, or a comment. Unless noted, the call rests on the fitted dose curve; in most records, active means well fitted curve in the direction sought with a large enough effect; inconclusive means small, poorly fitted or top-dose-only effect, or another doubt; inactive means no such curve, though single readings can be large; an effect the other way counts as inactive or inconclusive. An excerpt. The share of hits here may be higher or lower than overall.

SMILES | VP16 counter | NPC1 promoter act | Rab9 prom act | FLuc counter | KCNH2 3.1 inh | RORg inh | ELG1 DNA repair | MBNL1 CUG block | Menin-MLL TR inh | Mito fusion act
O=C(NC1CCCC1)C(NS(=O)(=O)c1ccc(Br)s1)c1ccccc1 (stereo unspecified) | ? | 0.9% | -10.7% | -0.9% | 6.0 | 3.9% | -4.9% | -10.9% | 11.0% | 1.8%
COc1cccc(/C=N/NC(=O)CNC(=O)c2ccc(S(=O)(=O)N3CCOCC3)cc2)c1OC | -16.1% | ? | -0.9% | 0.4% | 22.3 | 34.7% | 18.6% | -15.0% | 0.3% | -5.1%
CC(=O)N1CCN(c2ccc(S(C)(=O)=O)cc2[N+](=O)[O-])CC1 | -0.2% | -2.1% | -0.3% | -0.3% | 6.3 | 7.6% | 8.5% | ? | 8.8% | 6.2%
O=C1CCCC2=C1C1c3ccccc3C(=O)N1c1ccc(C(=O)c3ccccc3)cc1N2 (stereo unspecified) | -12.7% | -3.9% | -2.7% | -9.6% | -34.4 | 42.6% | 16.4µM* | -15.8% | 1.4% | 23.0%
COC(=O)C1=CN(C2CCCCC2)C=C(C(=O)OC)C1c1ccc2c(c1)OCO2 | 1.8% | -6.3% | -5.6% | -2.6% | 6.6 | 1.5% | 6.9% | -5.0% | -6.5% | 20.5%
COc1cccc(-c2ocnc2C(=O)Nc2ccc3c(c2)CCC3)c1 | -1.6% | -1.3% | 9.1% | 19µM* | -5.1 | 0.0% | 7.2% | -3.1% | 18.1% | -3.8%
O=C(Nc1ccc(F)cc1Cl)c1ccc2c(=O)n3c(nc2c1)CCCCC3 | -0.2% | ? | ? | -3.3% | 5.6 | 18.7% | 0.0% | -4.9% | 1.9% | 5.4%
CCCCN(C(=O)CCC(=O)Nc1cc(C)on1)C(C(=O)NC1CCCC1)c1ccc(F)cc1 (stereo unspecified) | -4.4% | -3.3% | -1.1% | 1.5% | -15.5 | 24.6% | -4.5% | -7.0% | -7.6% | 4.5%
CNC(=O)N/N=C(\N)c1ccccn1 | -16.9% | 23.1% | 29.5% | -17.3% | 2.7 | 10.9% | ? | 6.0% | · | 1.0%
O=C(/C=C/c1ccc(Cl)cc1Cl)NCCN1CCOCC1 | -10.9% | 0.1% | -1.6% | ? | -4.9 | 15.1% | ? | 24.4% | 11.6% | -1.4%
CCS(=O)(=O)N1N=C(c2cccc(NS(C)(=O)=O)c2)CC1c1ccc(C)cc1 (stereo unspecified) | -5.1% | 12.4% | 15.5% | -13.6% | -5.7 | ? | -5.6% | 2.9% | -19.6% | -3.1%
O=C(Nc1cc(N2CCOCC2)ncn1)Nc1cccc2ccccc12 | -21.1% | -0.5% | 0.2% | 1.5% | 2.7 | 1.1% | 5.6% | -2.0% | 30.0%[activator] | 0.1%
Cc1ccc(C(=O)NC(=S)NCC2CCCO2)cc1 (stereo unspecified) | -21.3% | 2.82µM* | ? | 16.9µM* | 17.1 | 15.8µM* | ? | -1.6% | -16.0% | -11.5%
COc1ccc(/C=N/n2c(-c3cc(C)[nH]n3)n[nH]c2=S)cc1 | -14.7% | -0.3% | 0.2% | 1.6% | 14.6 | -36.3% | -5.4% | 3.6% | · | 0.5%
CC(C)=CC(=O)OCC(=O)Nc1cc(C)cc(C)c1 | ? | 4.7% | -8.2% | -4.5% | -5.8 | 0.9% | -5.7% | -3.8% | 19.5% | -4.3%
CSc1nc2ccc(NC(=O)C3CC(=O)N(Cc4ccccc4)C3)cc2s1 (stereo unspecified) | -0.8% | -5.2% | -2.3% | -3.6% | -4.4 | 18.4% | -7.9% | -5.4% | 24.0% | 2.6%
NC(=S)Cc1nc2n(n1)Cc1ccccc1-2 | 7.4% | 0.2% | -8.4% | 2.6% | -1.1 | -2.7% | ? | -4.1% | -1.4% | 3.9%
C#CCSc1nnc(CNS(=O)(=O)c2ccc(Br)cc2)n1C | -4.1% | 0.5% | -0.5% | 3.8% | 5.3 | 4.2% | -4.9% | -2.4% | · | 0.0%
O=C(CN(c1cccc(Cl)c1)S(=O)(=O)c1ccccc1)NN=C1CCCC1 | -15.3% | 0.0% | -0.4% | 3.6% | 16.2 | -30.8% | 0.2% | -4.4% | 0.3% | -6.4%
O=c1c([N+](=O)[O-])cc(C(F)(F)F)cn1Cc1c(Cl)cccc1Cl | -1.5% | 3.2% | 2.6% | -1.2% | 13.2 | -24.3% | -6.1% | 25.9% | · | 8.3%
CCOC(=O)Cn1c(=N)n(CCOc2ccc(Br)cc2)c2ccccc21 | -7.2% | -0.3% | -2.8% | -1.5% | -36.9 | -1.5% | -0.8% | · | · | -2.8%
COc1cc(NC(=O)c2ccccc2F)c(OC)cc1NC(=O)CN1CCCCC1 | -5.2% | -3.0% | 2.2% | ? | 2.4 | 5.8% | ? | -12.1% | -12.0% | 2.0%
C=CCOc1ccc(Br)cc1CNC(C)(C)CO | 1.1% | -5.8% | -0.7% | -0.6% | -1.0 | -8.5% | 18.2% | -0.5% | -0.9% | -4.1%
CC(C)S(=O)(=O)c1csc(C(=O)NNC(=O)Nc2ccccc2)c1Cl | 6.3% | 0.1% | 4.9% | -5.3% | -0.8 | 27.5% | 0.2% | -0.4% | · | -1.5%
Cc1cccc(OCCCC(=O)Nc2ccc(S(=O)(=O)Nc3onc(C)c3C)cc2)c1 | -6.9% | 0.3% | 1.8% | -0.5% | 5.5 | -6.5% | -0.3% | -7.5% | 16.9% | 0.1%

More structures:
SMILES | VP16 counter | NPC1 promoter act | Rab9 prom act | FLuc counter | KCNH2 3.1 inh | RORg inh | ELG1 DNA repair | MBNL1 CUG block | Menin-MLL TR inh | Mito fusion act
COc1cccc(CCc2nnc(CCC(=O)N3CCCC3c3nccs3)o2)c1 (stereo unspecified) | 9.5% | 3.5% | -0.6% | 2.8% | 2.8 | 20.5% | 2.5% | 10.6% | -1.0% | 4.8%
Cc1ccc(NC(=O)CC2SCCNC2=O)cc1Cl (stereo unspecified) | 14.4% | ? | ? | ? | 5.3 | 10.3% | ? | -0.5% | 14.5% | 1.8%
COc1ccccc1CNC(=O)COc1ccc([N+](=O)[O-])cc1 | -6.9% | 4.2% | -13.2% | -3.6% | 12.0 | 15.7% | -3.0% | ? | 1.5% | -2.0%
Cc1ccc(OCCCC(=O)Nc2ccc(S(=O)(=O)Nc3ccccn3)cc2)cc1 | 1.1% | -11.3% | -5.0% | 3.5% | 2.2 | ? | -12.4% | 3.3% | 20.1% | -1.0%
O=C(O)c1ccccc1C(=O)c1ccc(Cl)cc1 | 3.8% | 4.2% | -5.4% | -1.8% | -28.2 | 0.4% | -19.1% | · | · | 4.5%
COc1cccc(C(=O)NC2CCSC2=O)c1 (stereo unspecified) | -17.2% | -3.9% | 1.5% | 1.4% | 3.2 | -6.3% | -1.4% | -7.6% | -9.0% | -3.6%
Cn1nc(OC(=O)Nc2cccc(Cl)c2)cc1C(F)(F)F | -1.2% | 6.4% | -1.3% | ? | 2.5 | 17.7% | ? | -9.3% | ? | -0.9%
CC1=C(C(N)=O)C(c2ccccc2)n2nc(-c3cccs3)nc2N1 (stereo unspecified) | -4.5% | 0.7% | 12.7% | -0.8% | 13.0 | -9.2% | 11.4% | -5.2% | 4.1% | ?
N#Cc1ccc(NC(=O)COC(=O)CCc2nc3ccccc3c(=O)[nH]2)cc1 | 1.5% | -3.2% | -1.2% | 3.7% | 13.1 | 6.3% | 4.7% | · | · | -2.0%
COC(=O)c1ccc(OCC(O)CN2CCOCC2)cc1 (stereo unspecified) | 3.1% | -4.0% | -0.4% | 0.0% | 4.9 | 40.9% | -2.3% | -4.8% | 8.3% | -7.7%
O=[N+]([O-])c1cc(-c2cnc3ccccc3n2)ccc1Oc1ccc(F)cc1 | -8.6% | 19.0% | 16.6% | ? | -15.3 | ? | ? | 6.5% | 6.9% | 13.9%
COc1cccc2cc(C(=O)NCCc3ccccc3)oc12 | -27.3% | 2.0% | -1.0% | 3.3% | -0.1 | ? | -15.9% | -1.6% | · | -20.9%
COc1ccc(-c2[nH]ncc2-c2ccc3c(c2)OCCO3)c(O)c1 | ? | · | · | -3.6% | -11.4 | ? | · | -1.9% | 17.5% | 8.1%
CCC1(CC)NC(=O)N(CC(=O)OCC(=O)Nc2ccc(C(F)(F)F)cc2)C1=O | -2.7% | 1.3% | -5.6% | 8.3% | 6.4 | 20.6% | 9.9% | -13.0% | 4.3% | 0.4%
COc1cc(NC(C)=O)ccc1NC(=O)c1cc2ccccc2o1 | 4.8% | ? | ? | 2.6% | 18.4 | 5.6% | ? | -8.9% | -1.4% | 1.7%
CSc1ccccc1-n1nnnc1SCC(=O)NCc1cccs1 | -7.7% | -5.5% | 1.2% | 1.4% | -10.6 | 31.3% | -9.4% | 4.0% | -7.0% | -1.9%
COc1ccc(Br)cc1CN1CCN(C(=O)c2ccc(F)cc2)CC1 | -5.4% | -0.9% | -9.5% | 1.6% | -46.8 | 16.9% | -4.8% | -14.9% | ? | -2.7%
Cc1ccc(NC(=O)CCn2nc(C)cc2C)c(C)c1 | 2.5% | -0.5% | -1.4% | 0.9% | 4.3 | -5.9% | 1.6% | -3.4% | ? | -1.7%
C=CCn1c(-c2ccc(=O)n(Cc3ccccc3)c2)n[nH]c1=S | -8.8% | 0.3% | -8.3% | -2.8% | · | -26.9% | -0.2% | 1.3% | 15.2% | -0.8%
